FGF22 binding = binders of recombinant human FGF22 by thermal shift; Q9HCT0; SYPRO orange fluorescence; percent of sucrose octasulfate shift, DMSO zero; calls only at 9.99 µM; 340,000 tested, 1.5% active;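 active means melting point raised past a set limit in the mean and every replicate; three in four hits are not shown here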
Target sequence (Q9HCT0 whole entry, looked up): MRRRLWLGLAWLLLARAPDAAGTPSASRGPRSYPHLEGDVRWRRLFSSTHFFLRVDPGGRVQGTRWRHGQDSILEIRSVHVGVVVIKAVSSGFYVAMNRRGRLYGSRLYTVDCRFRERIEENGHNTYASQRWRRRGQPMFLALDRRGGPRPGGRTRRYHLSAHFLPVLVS
rRNA inh HTS = inhibitors of bacterial rRNA selective over humanized ribosomes. 350,000 tested, 1.6% active. GFP signal change (wild-type ribosome), % (no concentration beside the values). E. coli WT GFP vs humanized-ribosome RFP mutants, fluorescence, 24 h; stronger effect = lower value; DMSO median 0, no signal -100;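 active means significant combined selectivity score with lowered wild-type GFP, culture density cut under 30%, mutant RFP and density less affected; inactive means any of these conditions unmet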; further: one replicate is shown; some compounds called inactive have numbers as strong as hits
rRNA inh HTS OD600 = further read-out of rRNA inh HTS, marked with its call; OD600 change, %; measured here: OD600 growth;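 optical density of the mix in the first replicate; 0 = DMSO median and -100 = no signal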
rRNA inh HTS RFP = also measured in rRNA inh HTS; calls as there; RFP signal change, %; measured here: RFP humanized mutant strains;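 first replicate; 0 = DMSO median and -100 = no signal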
Active calls of the source: *; i = inactive. This is a subset (hit frequency here may not be typical).

cpd	SMILES	FGF22 binding	rRNA inh HTS	rRNA inh HTS OD600	rRNA inh HTS RFP
1	C[C@H](CO)N1C[C@H](C)[C@H](CN(C)Cc2ccc(Oc3ccccc3)cc2)OCc2ccccc2-c2c(n(C)c3ccccc23)C1=O	i	1	-3	-0.2
2	O=C(Nc1ccccc1)N[C@H]1CC[C@@H](CCNS(=O)(=O)c2ccccc2F)O[C@@H]1CO	i	2	-1	-3.8
3	C[C@@H]1CN([C@@H](C)CO)C(=O)Cc2cc(NS(=O)(=O)c3ccccc3)ccc2O[C@@H]1CN(C)S(=O)(=O)c1cn(C)cn1	i	4	5	0.2
4	C[C@@H]1CN([C@@H](C)CO)C(=O)c2cc(NS(=O)(=O)c3cn(C)cn3)ccc2O[C@@H]1CN(C)Cc1ccc(Oc2ccccc2)cc1	i	3	-16	5.0
5	Cc1ccc(S(=O)(=O)N2CC[C@@H]3[C@H](CO)N(C)c4ccc(C#Cc5cccnc5)cc4[C@@H]32)cc1	i	-5	4	-1.1
6	COc1ccc(CN(C)C[C@@H]2OCCCC[C@H](C)Oc3ccc(NC(=O)Nc4c(C)noc4C)cc3C(=O)N([C@H](C)CO)C[C@@H]2C)cc1	i	2	4	1.3
7	O=C(NC1CCCC1)[C@@H]1[C@@H](CO)[C@@H]2Cn3c(ccc(C4=CCCC4)c3=O)[C@H]1N2C(=O)c1ccccc1	i	-4	-14	3.6
8	C[C@@H]1CCCCO[C@@H](CN(C)C(=O)Nc2ccc3c(c2)OCO3)[C@@H](C)CN([C@H](C)CO)C(=O)c2cc(NC(=O)c3ccncc3)ccc2O1	i	7	3	-1.8
9	O=C(CC1CC1)N1CC[C@@H]2[C@H]1c1cc(-c3ccccc3)ccc1N[C@@H]2CO	i	-6	-20	3.1
10	O=C(C[C@H]1CC[C@H]2[C@@H](COC[C@@H](O)CN2C(=O)Nc2ccc(Cl)c(Cl)c2)O1)NCc1ccccc1	i	-57	-76	-15
11	COc1cccc(CN(C)C[C@H]2OCc3ccccc3-c3c(n(C)c4ccccc34)C(=O)N([C@H](C)CO)C[C@H]2C)c1	i	2	-12	11
12	C[C@@H]1CN([C@H](C)CO)C(=O)c2cc(C#Cc3ccccc3F)cnc2O[C@H]1CN(C)C(=O)C1CCC1	i	-4	-15	10
13	O=C(Nc1ccc(-c2ccccc2)cc1)[C@@H]1[C@@H](CO)[C@@H]2Cn3c(cccc3=O)[C@@H]2N1CC1CCOCC1	i	-1	-12	2.6
14	C[C@H](CO)N1C[C@H](C)[C@H](CN(C)Cc2ccccn2)Oc2cc(-c3cccc(C#N)c3)ccc2S1(=O)=O	i	-8	-11	-1.6
15	O=C(NCc1cccc(F)c1)[C@@H]1[C@@H](CO)[C@@H]2Cn3c(ccc(-c4cccnc4)c3=O)[C@H]1N2CC1CC1	i	0	0	-0.6
16	C[C@@H]1CN([C@H](C)CO)C(=O)c2cccc(NC(=O)Nc3ccc4c(c3)OCO4)c2O[C@H]1CN(C)Cc1ccc(Oc2ccccc2)cc1	i	-8	9	14
17	COc1ccc(S(=O)(=O)Nc2cccc3c2O[C@@H](CN(C)Cc2ccncc2)[C@@H](C)CN([C@@H](C)CO)C3=O)cc1	i	1	3	-0.6
18	CO[C@H]1CN(C)C(=O)c2ccc(NC(=O)Nc3cccc(F)c3)cc2OC[C@@H](C)N(C)C[C@@H]1C	i	-4	-5	4.6
19	O=C(N[C@@H]1CC[C@H](CC(=O)N2CCOCC2)O[C@H]1CO)c1cccc(F)c1	i	0	2	-0.7
20	COc1ccc(S(=O)(=O)N(C)C[C@@H]2OCCCC[C@@H](C)Oc3ccc(NC(=O)c4ccncc4)cc3C(=O)N([C@H](C)CO)C[C@@H]2C)cc1	i	4	7	-3.3
21	CN1C(=O)c2cc(NC(=O)C3CCOCC3)ccc2OC[C@H]2O[C@H](CC(=O)NCC3CCCCC3)CC[C@@H]21	i	-2	-6	-0.3
22	C[C@@H]1CCCCO[C@H](CN(C)C(=O)Nc2ccc(C(F)(F)F)cc2)[C@H](C)CN([C@@H](C)CO)C(=O)c2cc(N(C)C)ccc2O1	i	-1	0	-2.1
23	CC(=O)N(C)C[C@H]1Oc2cc(-c3ccncc3)ccc2S(=O)(=O)N([C@@H](C)CO)C[C@@H]1C	i	5	7	1.0
24	C/C=C/c1ccc([C@@H]2[C@H](CO)N3C(=O)CN(C(=O)Nc4cccc(OC)c4)C[C@@H]23)cc1	i	-1	12	1.3
25	C[C@@H]1CN([C@@H](C)CO)C(=O)c2cc(NC(=O)Cc3ccccc3)ccc2O[C@@H]1CN(C)C(=O)Nc1ccc2c(c1)OCO2	i	3	7	-0.5
26	C[C@H](CO)N1C[C@H](C)[C@H](CN(C)C(=O)Nc2ccccc2)Oc2c(NC(=O)c3ccc(-c4nccs4)cc3)cccc2C1=O	i	-9	-19	-1.0
27	C=CCNC(=S)N(C)[C@H]1C[C@H]2c3[nH]c4c(-c5ccccc5)cccc4c3CCN2C(=O)[C@H]1[C@H](C)O	i	1	-12	1.9
28	C[C@@H]1CN([C@H](C)CO)C(=O)c2cc(NC(=O)Nc3cccc4ccccc34)ccc2O[C@@H](C)CCCCO[C@@H]1CN(C)Cc1ccccc1	i	1	2	0.1
29	Nc1ccn([C@@H]2O[C@H](C(=O)N[C@H](Cc3ccccc3)C(=O)Nc3ccc4scnc4c3)[C@@H](O)[C@H]2O)c(=O)n1	i	-10	1	-5.6
30	C[C@@H]1CN([C@@H](C)CO)S(=O)(=O)c2ccc(-c3cncnc3)cc2O[C@H]1CN(C)CC1CC1	i	-1	-1	1.5
31	OC[C@@H]1Nc2ccc(-c3cccc(F)c3)cc2[C@H]2[C@@H]1CCN2Cc1ccncc1	i	10	-12	1.5
32	O=C(N[C@H]1CC[C@@H](CCNC(=O)C2CCCC2)O[C@@H]1CO)c1ccccn1	i	2	1	-2.8
33	C[C@H](O)C#Cc1cnc2c(c1)C(=O)N([C@H](C)CO)C[C@H](C)[C@@H](CN(C)CC1CCCC1)O2	i	2	9	1.0
34	COc1cccc(S(=O)(=O)N[C@H]2C=C[C@@H](CC(=O)NCc3ccncc3)O[C@@H]2CO)c1	i	2	4	-3.3
35	CO[C@H]1CN(C)C(=O)c2cc(C#N)ccc2OC[C@@H]2O[C@@H](CC[C@H]2OC)CCN(C)C(=O)[C@@H]1C	i	5	6	-5.1
36	C[C@@H]1CN([C@@H](C)CO)C(=O)c2cc(-c3cccc(C#N)c3)cnc2O[C@H]1CN(C)C(=O)c1cnccn1	i	3	1	-4.0
37	O=C(CC1CC1)N1[C@H](CO)[C@H]2c3ccccc3N(S(=O)(=O)c3ccc(F)cc3)C[C@H]21	i	-4	-7	-1.5
38	COc1ccccc1NC(=O)N1CCCCN2[C@H](C1)[C@@H](c1ccc(C#Cc3ccccc3)cc1)[C@@H]2CO	i	2	0	3.0
39	COc1ccc(CN2C[C@H](O)COC[C@@H]3O[C@H](CC(=O)N(C)C)CC[C@H]32)cc1	i	2	8	-1.8
40	O=S(=O)(c1cccs1)N1CCCCN2[C@H](CO)[C@H](c3ccc(C4=CCCC4)cc3)[C@@H]2C1	i	-7	-23	-0.6
41	COCC(=O)N1C[C@H](C)[C@H](OC)CN(C)C(=O)c2cc(NC(=O)Nc3cccc(F)c3)ccc2OC[C@H]1C	i	-2	-4	-0.1
42	C[C@@H]1CN([C@@H](C)CO)C(=O)c2cc(NC(=O)NC3CCCCC3)ccc2O[C@H]1CN(C)Cc1ccc(Cl)c(Cl)c1	i	-2	1	-1.2
43	CC(C)C(=O)Nc1ccc2c(c1)C(=O)N(C)[C@@H]1CC[C@@H](CC(=O)NCC3CC3)O[C@@H]1CO2	i	3	-1	-2.5
44	COc1cccc(C#Cc2ccc3c(c2)O[C@@H](CN(C)C)[C@@H](C)CN([C@H](C)CO)S3(=O)=O)c1	i	2	5	-1.2
45	COc1ccc(S(=O)(=O)N(C)C[C@@H]2Oc3ccc(NS(=O)(=O)c4ccccc4)cc3C(=O)N([C@H](C)CO)C[C@@H]2C)cc1	i	-4	-7	2.1
46	C[C@H](CO)N1C[C@H](C)[C@H](CN(C)C(=O)C2CC2)Oc2cc(-c3cccc(F)c3)ccc2S1(=O)=O	i	-2	5	-2.7
47	COc1ccccc1CN1CC[C@@H]2[C@H]1c1cc(C3=CCCCC3)ccc1N[C@@H]2CO	i	0	-9	9.0
48	C[C@@H]1CCCCO[C@@H](CN(C)S(=O)(=O)c2ccc(F)cc2)[C@H](C)CN([C@@H](C)CO)C(=O)c2cc(NS(=O)(=O)c3cccs3)ccc2O1	i	-4	-12	0.0
49	CCCNC(=O)N1CC2(CN(Cc3cccc(OC)c3)C2)c2c([nH]c3cc(OC)ccc23)[C@H]1CO	i	-3	-8	8.1
50	O=C(C[C@H]1C[C@H]2c3cc(NC(=O)C4CCC4)ccc3O[C@H]2[C@@H](CO)O1)NCc1ccc(-c2ccccc2)cc1	i	5	8	1.4
51	CC(C)NC(=O)N(C)C[C@H]1Oc2ccc(NC(=O)CCCCCC(=O)Nc3ccccc3N)cc2CC(=O)N([C@H](C)CO)C[C@@H]1C	i	4	6	-0.9
52	C[C@@H]1CN([C@@H](C)CO)C(=O)c2cc(C#CC3(O)CCCC3)cnc2O[C@@H]1CN(C)Cc1cccnc1	i	4	4	-0.7
53	C[C@H]1CN([C@@H](C)CO)C(=O)c2cccc(NC(=O)Nc3ccc4c(c3)OCO4)c2O[C@H]1CN(C)Cc1ccc(C(F)(F)F)cc1	i	-6	-4	4.3
54	CNC[C@H]1Oc2ccc(NC(=O)CCC(F)(F)F)cc2CC(=O)N([C@H](C)CO)C[C@@H]1C	i	5	18	1.9
55	CCCC#Cc1cnc2c(c1)C(=O)N([C@@H](C)CO)C[C@H](C)[C@@H](CN(C)C(=O)c1ccccc1)O2	i	4	2	1.0
56	CNC[C@@H]1Oc2c(NC(=O)c3ccc(-c4nccs4)cc3)cccc2C(=O)N([C@@H](C)CO)C[C@@H]1C	i	0	-7	0.6
57	COc1ccc(-c2cn(CC[C@@H]3CC[C@H](NC(=O)NC(C)C)[C@@H](CO)O3)nn2)cc1	i	2	8	-1.7
58	C/C=C/c1ccc([C@H]2[C@@H](CO)N(Cc3ccccn3)[C@@H]2CNC(C)=O)cc1	i	4	4	1.8
59	Cc1ccccc1-c1ccc2c(c1)[C@@H]1C[C@H](N(C)C(=O)Nc3ccccc3)[C@H]([C@H](C)O)CN1CC2	i	-8	-1	6.5
60	C[C@@H]1CN([C@H](C)CO)C(=O)Cc2cc(NS(C)(=O)=O)ccc2O[C@H]1CN(C)CC1CC1	i	2	-1	-1.8

Whole records from above. Values in the order: FGF22 binding	rRNA inh HTS	rRNA inh HTS OD600	rRNA inh HTS RFP
`C[C@H](CO)N1C[C@H](C)[C@H](CN(C)C(=O)C2CC2)Oc2cc(-c3cccc(F)c3)ccc2S1(=O)=O` is entered as i	-2	5	-2.7
`C[C@@H]1CN([C@@H](C)CO)C(=O)c2cc(NC(=O)NC3CCCCC3)ccc2O[C@H]1CN(C)Cc1ccc(Cl)c(Cl)c1` is entered as i	-2	1	-1.2

(more compounds)
cpd	SMILES	FGF22 binding	rRNA inh HTS	rRNA inh HTS OD600	rRNA inh HTS RFP
61	O=C(NCC[C@H]1CC[C@H](NS(=O)(=O)c2cccc(F)c2)[C@@H](CO)O1)C1CCC1	i	-1	4	-0.8
62	CC(=O)N(C)C[C@@H]1Oc2cc(-c3cccc(C#N)c3)ccc2S(=O)(=O)N([C@H](C)CO)C[C@H]1C	i	-2	-5	-5.1
63	COC(=O)C1=C(C)N(Cc2ccc(Br)cc2)C(=S)NC1c1ccccc1 (stereo not drawn)	i	-5	-7	-0.1
64	C[C@@H]1CN([C@H](C)CO)C(=O)Cc2cc(NC(=O)Cc3ccccc3)ccc2O[C@H]1CN(C)S(C)(=O)=O	i	-1	-7	-1.5
65	O=C(C[C@@H]1CC[C@@H]2[C@H](COC[C@H](O)CN2Cc2cccc(-c3ccncc3)c2)O1)N1CCOCC1	i	-3	-8	-2.4
66	CC(=O)N1[C@@H]2Cn3c(cccc3=O)[C@H]1[C@@H](C(=O)NCc1ccc(F)cc1)[C@@H]2CO	i	0	3	-3.4
67	C[C@H](CO)N1C[C@H](C)[C@H](CN(C)CC2CCCCC2)Oc2c(NC(=O)c3ccc(-c4nccs4)cc3)cccc2C1=O	i	-3	-9	-0.3

For reference, some entries already given:
cpd	SMILES	FGF22 binding	rRNA inh HTS	rRNA inh HTS OD600	rRNA inh HTS RFP
56	CNC[C@@H]1Oc2c(NC(=O)c3ccc(-c4nccs4)cc3)cccc2C(=O)N([C@@H](C)CO)C[C@@H]1C	i	0	-7	0.6
57	COc1ccc(-c2cn(CC[C@@H]3CC[C@H](NC(=O)NC(C)C)[C@@H](CO)O3)nn2)cc1	i	2	8	-1.7
58	C/C=C/c1ccc([C@H]2[C@@H](CO)N(Cc3ccccn3)[C@@H]2CNC(C)=O)cc1	i	4	4	1.8
59	Cc1ccccc1-c1ccc2c(c1)[C@@H]1C[C@H](N(C)C(=O)Nc3ccccc3)[C@H]([C@H](C)O)CN1CC2	i	-8	-1	6.5
60	C[C@@H]1CN([C@H](C)CO)C(=O)Cc2cc(NS(C)(=O)=O)ccc2O[C@H]1CN(C)CC1CC1	i	2	-1	-1.8
61	O=C(NCC[C@H]1CC[C@H](NS(=O)(=O)c2cccc(F)c2)[C@@H](CO)O1)C1CCC1	i	-1	4	-0.8
62	CC(=O)N(C)C[C@@H]1Oc2cc(-c3cccc(C#N)c3)ccc2S(=O)(=O)N([C@H](C)CO)C[C@H]1C	i	-2	-5	-5.1
63	COC(=O)C1=C(C)N(Cc2ccc(Br)cc2)C(=S)NC1c1ccccc1 (stereo not drawn)	i	-5	-7	-0.1
64	C[C@@H]1CN([C@H](C)CO)C(=O)Cc2cc(NC(=O)Cc3ccccc3)ccc2O[C@H]1CN(C)S(C)(=O)=O	i	-1	-7	-1.5

Screening data from PubChem BioAssay.
